Screens (PubChem)
UCH37 inh: human UCH37 deubiquitinating enzyme inhibition; purified proteasome/UCH37, Ub-AMC cleavage fluorescence; inhibition, % (no concentration beside the values); 330,000 tested, 0.33% active; AID 588478;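 active = mean of two replicates above 20%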;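 also: 0% = compound-free wells with enzyme and 100% = wells lacking proteasome; stock transfer was 100 nL into about 20 µL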
Target sequence (Q9Y5K5 whole entry, looked up): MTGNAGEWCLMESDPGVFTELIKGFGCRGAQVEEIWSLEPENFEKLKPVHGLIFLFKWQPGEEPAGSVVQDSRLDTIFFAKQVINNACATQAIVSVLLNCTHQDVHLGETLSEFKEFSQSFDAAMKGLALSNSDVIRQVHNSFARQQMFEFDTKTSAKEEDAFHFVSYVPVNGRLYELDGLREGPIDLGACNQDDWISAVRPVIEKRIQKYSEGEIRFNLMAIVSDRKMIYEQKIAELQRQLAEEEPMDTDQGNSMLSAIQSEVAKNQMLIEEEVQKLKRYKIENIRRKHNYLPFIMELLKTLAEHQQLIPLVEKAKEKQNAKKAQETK
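Test system – human UCH37 enzyme supplied as purified proteasome complex · Incubation – 30 min preincubation with enzyme, 25 min cleavage at room temperature · Detection – AMC fluorescence from Ub-AMC cleavage, excitation 355 nm, emission 460 nm · Benchmarks – no-proteasome wells (full inhibition) and compound-free wells (no inhibition)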
RanGTP-Impb inh: inhibitors of RanGTP-importin-beta interaction, primary screen, biochemical, FRET, CFP-Ran, YFP-importin-beta, homogeneous. cell-free CFP-Ran/YFP-importin-beta FRET ratio. inhibition, % (no concentration beside the values). 300,000 tested, 1.1% active. AID 2216;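 active = most replicates above 15%; inconclusive = exactly half above 15%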;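 also: 0% = DMSO wells and 100% = Ran loaded with GDP instead of GTP; wells of about 40 µL received 100 nL stock; the first replicate is given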
T cruzi repl: blocks replication of Trypanosoma cruzi | T. cruzi beta-gal in NIH3T3, luminescence, 90 h | inhibition, % (no concentration beside the values) | 300,000 tested, 1.4% active;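 active = mean inhibition across valid replicates above about 55%, limit read from the data; inconclusive = mean below that limit but half or more replicates reach it; inactive = mean below it, under half of replicates reach it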;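 also: signal also drops with host cell toxicity which is not excluded here; 0% = plate median of DMSO wells and 100% = zero luminescence signal; higher percent means less beta-gal luminescence so fewer parasites; stock transfer was 50 nL into about 50 µL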
Beta apoptosis: blocks beta cell apoptosis; 300,000 tested, 0.8% active; INS-1E cytokine-induced death, ATP luminescence, 48 h; percent of positive-control rescue, neutral wells zero; protection from apoptosis, % (concentration not given with the values); AID 435005;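 active = all replicates at 75% or more, or half of them and the mean; inconclusive = half reach 75% but not the mean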;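 also: 0% = cytokine-treated negative control wells and 100% = positive control rescue; higher means more ATP so stronger rescue from cytokine killing; wells of about 40 µL received 100 nL stock; the first replicate is given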
B2AR ag: agonists of human beta-2 adrenergic receptor inducing internalization | response, % (test concentration not listed) | AID 504454 | Am2.2-beta2AR cells, FAP receptor internalization, flow cytometry; reference of the scale not given here | P07550 | 340,000 tested, 0.43% active;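 active = response above a set limit, near 3 SD of response in nonfluorescent compounds, cut at about 42% in these data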;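 also: stock transfer was 100 nL into about 11 µL; a reference agonist was the positive control; negative values mostly stem from fluorescent compounds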
Target sequence (P07550 whole entry, looked up): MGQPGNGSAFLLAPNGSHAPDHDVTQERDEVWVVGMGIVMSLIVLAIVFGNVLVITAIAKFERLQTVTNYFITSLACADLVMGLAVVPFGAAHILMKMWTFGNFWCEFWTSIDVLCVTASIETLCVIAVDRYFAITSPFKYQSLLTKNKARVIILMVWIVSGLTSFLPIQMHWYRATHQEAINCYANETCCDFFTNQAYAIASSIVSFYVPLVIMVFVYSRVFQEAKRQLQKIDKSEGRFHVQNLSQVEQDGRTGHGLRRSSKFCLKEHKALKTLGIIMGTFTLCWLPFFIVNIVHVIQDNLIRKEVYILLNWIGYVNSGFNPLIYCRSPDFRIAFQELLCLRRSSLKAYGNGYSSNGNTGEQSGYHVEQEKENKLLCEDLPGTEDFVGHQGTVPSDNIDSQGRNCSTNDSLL
Calb FLC: C. albicans growth modulation with fluconazole; growth inhibition, % (test concentration not listed); AID 1979; C. albicans CaCi-2 (fluconazole-resistant clinical isolate) + fluconazole, Alamar Blue growth, 48 h; 300,000 tested, 0.57% active;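 active = most replicates above 75%; inconclusive = exactly half above 75%; inactive = most below 75%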;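 also: all wells also contain fluconazole at 8 µg/ml as a sub-toxic cotreatment; 0% = median of DMSO wells and 100% = median of geldanamycin control wells; wells of about 8 µL received 7.5 nL stock; the first replicate is given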
Bfl-1 A1 inh: inhibitors of the anti-apoptotic protein A1, read as caspase activation; MEF A1-2A-BIM cells, Caspase-Glo 3/7 luminescence, 3 h; percent of clofoctol response, vehicle zero; caspase activation, % (test concentration not listed); 330,000 tested, 0.066% active; AID 2462;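 active = over half of replicate activation scores above 10%, or exactly half above 10 with the replicate mean above 10; inconclusive = replicate mean below 10 yet half the replicates above 10; inactive = over half of replicates below 10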;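 also: wells of about 30 µL received 50 nL stock; many hits fall short of the cut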
LANA-H2B inh: blocks KSHV LANA binding to histone H2A/H2B; inhibition, % (concentration not given with the values); Q9QR71; 320,000 tested, 0.6% active; cell-free LANA-H2A/H2B peptide, fluorescence polarization; in the data active = inhibition mostly above about 10%, no sharp cut-off; inactive = mostly below about 6.7%;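 also: stock transfer was 7.5 nL into about 10 µL; 0% = median of vehicle wells and 100% = median of positive control wells; one replicate is shown; the record names a cut of 25% in any replicate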
* marks the source's active call; other numbers are inactive results; i = inactive; ? = inconclusive; · = not tested or not shown.

SMILES | UCH37 inh | RanGTP-Impb inh | T cruzi repl | Beta apoptosis | B2AR ag | Calb FLC | Bfl-1 A1 inh | LANA-H2B inh
CN1C=C(C(F)(F)F)C=C/C1=C(\C#N)c1nnc2n1CCCCC2 | 8.8 | 1.7 | -13 | · | -5 | -10 | 1.3 | -2.0
Cc1[nH]nc2c1C(c1ccc(OC(=O)c3ccco3)cc1)C(C#N)=C(N)O2 (stereo unspecified) | 1.4 | 5.1 | -17 | 1 | 0 | -4 | 0.2 | 3.0
CC(C)CNC(=O)C(=O)NCCCN1CCOCC1 | 3.7 | 2.9 | -13 | 5 | 3 | 6 | 1.3 | 2.4
Cc1ccccc1-c1nn(-c2ccc(F)cc2F)cc1CNCCN(C)C | 3.4 | 0.9 | -12 | -3 | -3 | 8 | -0.2 | -11
c1csc(-c2nn3cnnc3c3ccccc23)c1 | 2.1 | -3.8 | -18 | 2 | -1 | 12 | 0.5 | 6.5
CC(=C1C(=O)c2ccccc2C1=O)N1CCN(CCN=CC2=C(O)CC(C)(C)CC2=O)CC1 | 7.1 | ? | -9 | -12 | -1 | 25 | 1.2 | -0.2
CN(C)N1C(N)=C(C#N)C(c2ccc(Cl)cc2)C2=C1CCCC2=O (stereo unspecified) | 8.9 | ? | 1 | -7 | 1 | -2 | 0.1 | -2.5
CCOc1cc(C(=O)Nc2ccc(NC(C)=O)cc2)ccc1OCC(=O)N1CCCCC1 | 4.5 | 1.4 | -26 | -1 | -5 | -4 | 0.7 | 5.5
CCOC(=O)c1c(C(C)(C)C)oc2ccc(OCC#N)cc12 | 5.5 | ? | 10 | -5 | 2 | 6 | 0.1 | 0.1
C=CCOc1c2ccc(C(=O)NCc3ccc(C)cc3)cc2nn1C | -20 | 0.7 | 3 | -3 | 1 | 11 | 2.1 | -2.8
COC(C[C@@H](O)CC(=O)[C@H](C)OCc1ccccc1)OC | 5.9 | -2.7 | -25 | · | -7 | 0 | · | ·
O=C(NCc1ccccn1)c1cc(-n2cnnc2)ccc1Cl | 2.1 | 0.8 | -24 | · | -11 | -15 | 0.1 | -0.7
CCCCNC(=S)N(C)/N=C/c1c(F)c(F)c(F)c(F)c1F | · | 6.2 | 5 | 0 | 2 | -5 | 0.3 | 1.3
CCn1cc(CCC(=O)NCc2cccc(OC)c2OC)c2ccccc21 | -0.8 | -15 | 0 | -2 | 2 | -5 | 0.6 | 1.8
Cc1ccc(C2CC(C(F)(F)F)n3ncc(C(=O)NCc4ccco4)c3N2)cc1 (stereo unspecified) | 1.7 | 0.7 | 15 | 2 | -2 | 14 | 0.0 | -9.5
COc1ccc(-n2c(C)cc(/C=C3\SC(=S)NC3=O)c2C)cc1 | 6.1 | 9.8 | 7 | 6 | 6 | -2 | 0.5 | -4.6
CCc1ccc(NC(=O)NCCCN2CCCC2=O)cc1 | 0.4 | 0.6 | -5 | -7 | 4 | 9 | 0.3 | 0.0
CCc1cccc(C)c1NC(=O)CSc1nc2ccc(N3C(=O)c4ccccc4C3=O)cc2s1 | · | -3.4 | -8 | 1 | -6 | -5 | 1.8 | -4.2
CC(C)CCN(CCC(C)C)CC(O)Cn1c2ccccc2c(=O)c2ccccc21 (stereo unspecified) | -270 | 57* | 22 | 0 | 0 | 29 | 0.7 | 1.2
CN(C)c1cccc(-c2nnc(SCCCC#N)o2)c1 | -10 | -4.2 | -5 | · | · | 35 | -2.0 | 1.3
COc1c(F)c(F)c(C(=O)Nc2ccc(NC(=O)c3ccco3)cc2)c(F)c1F | 2.1 | -0.2 | -10 | 0 | 4 | -9 | 1.1 | -2.4
COc1ccc(C(=O)NC2CCSc3ccccc32)cc1S(=O)(=O)N1CCOCC1 (stereo unspecified) | 4.5 | -1.3 | 0 | · | 5 | 5 | -0.6 | 0.8
O=C(NCCc1ccccc1)Nc1ccc(Cl)cc1 | 1.9 | -4.9 | 6 | 0 | -7 | 2 | 0.3 | 0.5
CC1(C)CC(NC(=O)c2cc(Cl)ccc2Cl)CC(C)(C)N1 | 2.4 | -6.6 | -8 | -3 | -6 | 14 | 0.3 | 0.8
O=C(C/C(=N\NC(=O)c1ccccc1Br)C(F)(F)F)c1cccs1 | · | -1.9 | -11 | 5 | 5 | 0 | -2.0 | 3.0
COc1ccc(C(=O)NC(=O)COC(=O)C2CC2C)cc1 (stereo unspecified) | -1.9 | · | · | -7 | 2 | · | 0.1 | -7.0
Cc1cccc(N2CCN(S(=O)(=O)c3ccc(-c4cc(C)no4)s3)CC2C)c1 (stereo unspecified) | -3.2 | 2.1 | -15 | -4 | -6 | -9 | 0.0 | -4.3
O=c1oc2c(CN3CCCCC3)c(O)ccc2c2c1CCCCC2 | i | · | · | -6 | -11 | · | 0.6 | 3.5
Cc1ccccc1-n1c(Cn2c(=O)sc3ccccc32)nnc1SCC(=O)N1CCCC1 | 0.9 | ? | -2 | -3 | -14 | 0 | 2.1 | -0.8
O=C(COC(=O)Cc1cccc(C(F)(F)F)c1)NC(=O)NC1CCCC1 | -0.8 | · | · | -7 | 1 | · | 0.6 | -0.8
O=C(COc1ccc(Br)cc1)NNC(=S)NCc1ccccc1 | 0.8 | 0.4 | -2 | 1 | 14 | 3 | 0.2 | -1.2
CC(C)N1CCc2c(sc(NC(=O)CN3C(=O)c4ccccc4C3=O)c2C(N)=O)C1 | 0.5 | 142* | 10 | -1 | 1 | -1 | -0.4 | -4.3
O=C(N[C@H](CO)Cc1ccccc1)c1ccco1 | 2.7 | -1.3 | -16 | · | -1 | 0 | 0.1 | -3.7
Cc1ccccc1NC(=S)N(Cc1ccco1)C(C)c1ccccn1 (stereo unspecified) | 2.4 | 3.0 | -5 | -6 | -3 | 1 | -0.3 | 3.3
COCCNS(=O)(=O)c1cc(OC)ccc1OC | 3.3 | -3.2 | -12 | 5 | -7 | -1 | 0.3 | 3.7
Cc1nc(Nc2ccc(Cl)cc2)c(C#N)c(=O)[nH]1 | -36 | -0.9 | -8 | -2 | 8 | 6 | 0.4 | 1.4
COc1ccc([N+](=O)[O-])cc1N(CC(=O)NCCSc1ccccc1)S(C)(=O)=O | 3.4 | -1.2 | -8 | 2 | 4 | -1 | 1.8 | -6.2
Cc1ccc(COc2ccc(/C=N/NC(=O)CN3CCCCC3)cc2)cc1 | · | 0.5 | -4 | -3 | 12 | 29 | -0.7 | 2.3
C=CCOc1cccc(C2c3c(oc4ccc(F)cc4c3=O)C(=O)N2CCCN2CCOCC2)c1 (stereo unspecified) | 3.7 | -1.6 | -20 | -3 | -22 | -7 | 0.0 | 1.7
Cc1cc(C(=O)OCC(=O)N2CCC(c3ccccc3)=N2)ccc1[N+](=O)[O-] | 2.7 | · | 2 | 1 | -6 | -5 | 0.5 | -2.1

Laid out differently: 5 of the compounds above
canonical_smiles,UCH37 inh,RanGTP-Impb inh,T cruzi repl,Beta apoptosis,B2AR ag,Calb FLC,Bfl-1 A1 inh,LANA-H2B inh
O=C(COC(=O)Cc1cccc(C(F)(F)F)c1)NC(=O)NC1CCCC1,-0.8,·,·,-7,1,·,0.6,-0.8
C=CCOc1cccc(C2c3c(oc4ccc(F)cc4c3=O)C(=O)N2CCCN2CCOCC2)c1 (stereo unspecified),3.7,-1.6,-20,-3,-22,-7,0.0,1.7
COc1ccc(C(=O)NC2CCSc3ccccc32)cc1S(=O)(=O)N1CCOCC1 (stereo unspecified),4.5,-1.3,0,·,5,5,-0.6,0.8
Cc1ccccc1-n1c(Cn2c(=O)sc3ccccc32)nnc1SCC(=O)N1CCCC1,0.9,?,-2,-3,-14,0,2.1,-0.8
O=C(COc1ccc(Br)cc1)NNC(=S)NCc1ccccc1,0.8,0.4,-2,1,14,3,0.2,-1.2

(next part)
SMILES | UCH37 inh | RanGTP-Impb inh | T cruzi repl | Beta apoptosis | B2AR ag | Calb FLC | Bfl-1 A1 inh | LANA-H2B inh
COc1ccc(NC(=O)C2CCN(S(=O)(=O)c3ccc4c(c3)CC(C)N4C(C)=O)CC2)cc1OC (stereo unspecified) | 2.9 | 1.4 | 11 | -1 | -2 | -20 | -0.5 | -2.8
c1ccc2c(CN3CCCCC3)csc2c1 | -2.2 | 0.7 | 24 | -3 | 6 | 40 | 0.2 | -6.7
O=C(NC1CCCCC1)c1cc(Cl)ccc1[N+](=O)[O-] | 1.1 | -2.0 | 1 | -7 | -6 | -1 | -0.1 | 2.0
Cc1ccc(S(=O)(=O)N2CC(C)N(S(C)(=O)=O)C2)cc1 (stereo unspecified) | 2.0 | 5.3 | -27 | -1 | -9 | 0 | 0.7 | 5.9
CC(C)C(=O)N1CCN(c2ccccc2NC(=O)COc2ccc(C3CCCCC3)cc2)CC1 | 1.5 | -6.8 | 38 | 18 | 8 | -12 | 0.5 | -4.9
CC1(c2ccccc2)CC(C)(C)N(C(N)=O)c2ccccc21 (stereo unspecified) | 3.0 | 5.9 | -5 | -2 | 40 | -24 | 0.3 | 22*
Cc1ccc(CNc2ncnc3cc(Cl)ccc23)o1 | 0.8 | 3.6 | -20 | · | 2 | 7 | 0.7 | -6.6
Cc1ccc(S(=O)(=O)N(CC(=O)Nc2cccc([N+](=O)[O-])c2)Cc2ccc(Cl)cc2)cc1 | 4.7 | · | 29 | 17 | -5 | · | -0.1 | -5.0
Cc1cc(NC(=O)CCC(=O)N(c2ccccc2)C2(C(=O)NC3CCCCC3)CCCC2)no1 | 3.5 | 0.0 | 14 | -4 | 0 | -1 | -0.3 | 5.9
CCOC(=O)Cc1cnc(NC(=O)c2ccccc2)s1 | 1.8 | 5.0 | 4 | -13 | -4 | -6 | -2.9 | 4.1
Cc1ccc(S(=O)(=O)Nc2cccc(C(=O)NCC3(N4CCCCC4)CCCCC3)c2)cc1F | -0.5 | 4.7 | 8 | -14 | 6 | -5 | 0.2 | 7.3
COc1ccc(-c2noc(CN(C)C(=O)c3ccoc3C)n2)cc1 | 0.6 | ? | -3 | -3 | 7 | 1 | 0.3 | -2.8
CCC(C)(C)NC(=O)C(c1ccncc1)N(Cc1cccs1)C(=O)Cn1nnc2ccccc21 (stereo unspecified) | -3.0 | 2.3 | -1 | -5 | 2 | 1 | 0.0 | 1.8
COCC(C)NC(=O)c1cc2cccc([N+](=O)[O-])c2[nH]1 (stereo unspecified) | 7.2 | 0.7 | -20 | -8 | 4 | 15 | -0.8 | -5.9
O=c1oc(-c2cccc(Cl)c2)nc2c1cnn2-c1ccccc1 | -376 | -1.0 | -16 | · | 3 | -8 | 1.0 | 0.0
CC(C(=O)Nc1ccc(S(N)(=O)=O)cc1)N1CCc2ccccc21 (stereo unspecified) | 0.8 | 1.2 | -20 | 0 | 5 | -5 | 0.6 | 5.3
COc1ccc(-c2csc(N3CCN(C(=O)c4ccccc4)CC3)n2)cc1 | 1.1 | ? | -20 | -1 | -2 | ? | 0.2 | -1.3
